CXCR6 inh: inhibitors of human CXCR6 receptor | O00574 | actives 0.36% (n = 360,000) | CHO-K1 PathHunter CXCR6 beta-arrestin, luminescence | inhibition, % at 20 µM | AID 602244; in the data active = inhibition above about 34%, passing the limit was not always enough;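 also: antagonist mode with CXCL16 agonist at 10 nM final; 0% = 10 nM CXCL16 with DMSO and 100% = unstimulated wells without agonist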
Target sequence (O00574 whole entry, looked up): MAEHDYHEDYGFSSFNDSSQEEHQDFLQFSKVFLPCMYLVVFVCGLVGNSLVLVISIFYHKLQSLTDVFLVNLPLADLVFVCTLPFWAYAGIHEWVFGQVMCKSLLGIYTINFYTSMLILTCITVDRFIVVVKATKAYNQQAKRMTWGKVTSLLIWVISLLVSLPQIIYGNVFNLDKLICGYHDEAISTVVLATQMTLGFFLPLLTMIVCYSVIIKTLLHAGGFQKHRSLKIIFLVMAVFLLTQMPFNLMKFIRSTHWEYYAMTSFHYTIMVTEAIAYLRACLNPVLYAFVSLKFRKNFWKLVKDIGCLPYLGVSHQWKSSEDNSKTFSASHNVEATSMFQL
GRIN3A LBD mod: modulates the human NR3A ligand-binding domain. NR3A LBD differential scanning fluorimetry, Tm shift; 0% = protein alone, 100% = glycine-bound protein. Tm shift relative to glycine control, % at 25 µM. actives 2.5% (n = 340,000). AID 1259313;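 active = melting temperature shift of at least 10% of the positive control shift, at one fixed dose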
CCR6 antag: antagonists of human CCR6 receptor; CHO-K1 CCR6 PathHunter beta-arrestin, luminescence, CCL20-stimulated; inhibition, % at 20 µM; actives 0.49% (n = 340,000); AID 493098;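 active = compounds whose inhibition of the agonist-driven luminescence signal at 20 µM reaches about 50%, limit read from the data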;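 also: cells stimulated with CCL20 at 14 nM final; plate controls were DMSO with CCL20 for no effect and DMSO without agonist for full effect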
EBI2 antag: antagonists of human EBI2 receptor; EBI2 beta-arrestin recruitment, luminescence, 7a,25-OHC stimulated; inhibition, % at 5 µM; actives 0.81% (n = 360,000); in the data active = inhibition above about 38%;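 also: enzyme fragment complementation signal reports receptor beta-arrestin coupling in cells; 0% = agonist plus DMSO wells and 100% = wells without agonist; some results beyond the cut were filed as inactive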
Starred values were filed as active, the others as inactive; & = joins results of further samples. Some of the compounds tested; count on the stated rates, not on these rows.

Sequence of screens: GRIN3A LBD mod	CXCR6 inh	CCR6 antag	EBI2 antag
C[C@@H]1C[C@H]2[C@@H]3C[C@H](F)C4=CC(=O)C=C[C@]4(C)[C@@]3(F)[C@@H](O)C[C@]2(C)[C@@]1(O)C(=O)CO
 : 1	-10	9	-5
Cc1nn(CC(=O)O)c(C)c1Cl
 : -1	-2	-7	-11
Cc1nc2ccc(S(=O)(=O)NCC(=O)NCCN3CCCCCC3)cc2s1
 : 0	-7	-7	-3
O=C(O)/C=C\C(=O)O
 : 0	3	-3	-3
Cc1nc(-c2ccccc2)c(-c2ccccc2)[nH]1
 : -2	-7	-8	3
Cc1cnc(NC(=O)C2=C(O)c3ccccc3S(=O)(=O)N2C)s1
 : -3&5&-5&0	4&0&4&-1	11&14&7&6	-7&4&-2&-3
O=c1c(O)c(-c2cc(O)c(O)c(O)c2)oc2cc(O)cc(O)c12
 : 27*	6	11	-22
Cc1cnc(NC(=O)C2C(=O)c3ccccc3S(=O)(=O)N2C)s1 (centres undefined)
 : -38	4	12	-2
Cc1cccc(N2CCN(C(=O)c3cc4c(=O)n(C)c5ccccc5c4n3C)CC2C)c1 (centres undefined)
 : -1	7	-2	5

Among those listed so far, these contain a halogen:
Sequence of screens: GRIN3A LBD mod	CXCR6 inh	CCR6 antag	EBI2 antag
C[C@@H]1C[C@H]2[C@@H]3C[C@H](F)C4=CC(=O)C=C[C@]4(C)[C@@]3(F)[C@@H](O)C[C@]2(C)[C@@]1(O)C(=O)CO
 : 1	-10	9	-5
Cc1nn(CC(=O)O)c(C)c1Cl
 : -1	-2	-7	-11

Given bar-delimited: part of the list above.
canonical_smiles | GRIN3A LBD mod | CXCR6 inh | CCR6 antag | EBI2 antag
Cc1nc(-c2ccccc2)c(-c2ccccc2)[nH]1 | -2 | -7 | -8 | 3
Cc1cnc(NC(=O)C2=C(O)c3ccccc3S(=O)(=O)N2C)s1 | -3&5&-5&0 | 4&0&4&-1 | 11&14&7&6 | -7&4&-2&-3
O=c1c(O)c(-c2cc(O)c(O)c(O)c2)oc2cc(O)cc(O)c12 | 27* | 6 | 11 | -22
Cc1cnc(NC(=O)C2C(=O)c3ccccc3S(=O)(=O)N2C)s1 (centres undefined) | -38 | 4 | 12 | -2

Screening data (PubChem)
